NPYLR7 ag: mosquito NPYLR7 agonism | hit rate 0.15% among 270,000 | HEK293T NPYLR7/Galpha15, GCaMP6s calcium fluorescence | activation, % at 10 µM; in the data active means activation above about 40%;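 further: 0% = vehicle and 100% = reference agonist at the receptor; some compounds past the cut are filed as inactive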
NPYLR7 ag max-min: second read-out of NPYLR7 ag, no call of its own (marks repeat the call); activation, %; measured here: Max-Min RFU normalised activation; some inactives read as strong as hits;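 span of the calcium signal over five minutes; 0% = vehicle and 100% = native peptide agonist; compound fluorescence can raise it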
The depositor's hits bear a star; & = joins results of further samples. This is a subset; rates above refer to the full screens.

SMILES | NPYLR7 ag | NPYLR7 ag max-min
CCCCCCN(C(=O)c1ccccc1Cl)C(C)c1nc2ccccc2c(=O)n1-c1ccc(CC)cc1 (stereo not drawn) | 24 | 28
N#Cc1c(-c2ccc(F)cc2)cc(C2CC2)nc1N | 2 | 0
CN(C)CCCn1cccc1C=O | 5 | -5
CCOc1ccc(N2CCN(C(=O)CCc3ccccc3)C(C)C2=O)cc1 (stereo not drawn) | 1 | 12
Cc1nc(C(C)C)sc1C(=O)N1CCC2(CN(C)C(=O)O2)C1 (stereo not drawn) | -1 | -3
COC(=O)c1ccc(C(=O)N2CCC(n3c(=O)oc4c(C)cc(C)cc43)CC2)cc1 | 2 | 0
OC1CCN(CCCNc2nccc(C3CCCC3)n2)CC1 | -6 | -9
COCCN(Cc1nccn1Cc1ccc(F)c(F)c1)C(=O)CC(C)C | 4 | 11
O=C(O)CCCCCNC(=O)c1ccc2c(c1)CCCC2 | 5 | 6
Cc1cc(C(=O)N=Nc2c(O)[nH]c3ccc(Br)cc23)n[nH]1 | -2&5 | -8&9
CC(c1ccc(F)cc1)N(C)C(=O)COc1ccc2ccc(=O)oc2c1 (stereo not drawn) | 11 | 6
CCn1nc(C)c(Cn2cc(-c3ccc(F)c(Cl)c3)nn2)c1C | 0 | -4
CC1CCN(C(=O)C23CCC(C)(C(=O)O2)C3(C)C)CC1 (stereo not drawn) | 20 | 10
COc1ccc(S(=O)(=O)NCCNc2cc(-n3cccn3)ncn2)cc1Cl | -5 | -10
CCN(CC)C(CNC(=O)c1cccc2ncccc12)c1ccccc1 (stereo not drawn) | -7 | -3
COS(=O)(=O)c1ccc(C)c(N2CCCC2=O)c1C | 2 | 1
C=CCN(CC=C)C(=O)c1ccc(-n2nc(C(=O)OCC)cc2-c2ccc(OC)cc2)cc1 | -4 | -12
CCOC(=O)c1c(NC(=O)c2c(Br)c(C)nn2CC)c(-c2ccc(OC)cc2)cn1Cc1ccccc1 | 3 | -2
COCCN(Cc1cc(NC(=O)C2CCC2)ccc1N(C)C)C(=O)C1CC1 | 9 | 15
Cc1ccccc1-n1c(SCC(=O)NCc2ccccc2)nnc1-c1ccccc1F | 0 | 0
CCOC(=O)C(Cc1ccc(Cl)cc1)NC(=O)C1CC1(c1ccccc1)c1ccccc1 (stereo not drawn) | 8 | 9
Cc1cc(C)c2sc(N(CCCN(C)C)C(=O)c3ccc([N+](=O)[O-])o3)nc2c1 | 5 | 3
Cc1noc(-c2cccs2)c1C(=O)NCCc1cccc(Cl)c1 | -2 | -1
O=C(CCN1CCOC(c2ccc(F)cc2)C1)Nc1ccccc1F (stereo not drawn) | 3 | 0
C=CCn1c(C2CC2)n[nH]c1=S | -3 | 1
Following part.
SMILES | NPYLR7 ag | NPYLR7 ag max-min
CCn1nccc1NC(=O)COc1ccc(Cl)cc1C | -18 | -21
CCCC(=O)N1CCN(c2ncnc3c2nnn3C)CC1 | 0 | 31
COc1cc(OC)c(OC)cc1C=Nn1c(-c2ccc(C)cc2)n[nH]c1=S | -2 | -8
CC(O)(COc1ccccc1)c1ccc2c(c1)CN(Cc1cccn1-c1ccccn1)CCO2 (stereo not drawn) | 5 | 2
Nc1ncc(Cc2ccc(F)c(Cl)c2)s1 | 7 | 5
Cc1ccc(C(CNC(=O)CCc2ccccc2)N2CCN(C)CC2)cc1 (stereo not drawn) | -2 | -5
CN(Cc1ccc2nsnc2c1)C(=O)CC1COCCN1 (stereo not drawn) | -5 | -6
CC(C)Cc1cc(CNC(C)C(=O)NC2CCCC2)no1 (stereo not drawn) | 15 | 13
COc1cc(C(C)=O)ccc1Oc1ncnc2c1cnn2-c1cc(Cl)ccc1C | 1 | 2
Cn1c(=O)c2sccc2n2c(CCCC(=O)N3CCCC3)nnc12 | 8 | 5
O=C(COc1coc(CN2CCc3ccccc3C2)cc1=O)N1CCCCC1 | -2 | -3
CCN(C(=O)Nc1ccccc1F)C(C)c1nc2ccccc2c(=O)n1-c1cccc(Cl)c1 (stereo not drawn) | 8 | 11
CC(=O)Nc1cccc(-c2cncc(Nc3ccccc3)c2)c1 | -11 | -12
FC(F)(F)c1nc(NCCc2ccccn2)c2ccccc2n1 | -7 | 1
CCc1nc(N(CCC(=O)N2CCCC2)Cc2ccccc2)c2ccccc2n1 | 4 | 9
CC(C)Cc1ncc2c(n1)CN(C(=O)CC1C=CS(=O)(=O)C1)C2 (stereo not drawn) | -7 | -7
O=C(Cn1nc2c(c1NC(=O)c1cnccn1)CSC2)NCc1ccco1 | -3 | 5
CS(=O)(=O)Nc1ccc(F)cc1C(=O)NCc1cccc2c1OCO2 | -1 | -2
CCc1nc(NCCN2CCCC2)c2ccc(Cl)cc2n1 | 20 | 30
CN(C)N=C1CC(=[N+]2CCCC2)CC(C)(C)C1 | 7 | 10
CS(=O)(=O)Oc1ccc(CN(Cc2ccccc2)C(=O)c2ccc3ccccc3c2)cc1 | 13 | 15
O=C(c1ccc(F)cc1)N1CCN(c2nc(Cc3ccccc3)nc3cc(Cl)ccc23)CC1 | -31 | -18
Cc1c(C(=O)O)oc2c1C(O)CC(C)(C)C2 (stereo not drawn) | -3 | 4
COc1ccc(Cn2c(C(=O)N3CCN(C/C=C/c4ccccc4)CC3)cc3ccsc32)cc1 | -3 | 2
COc1ccc(C(CC(=O)N2CCC(N3CCCC3)CC2)c2ccccc2)cc1 (stereo not drawn) | 6 | 4

Individual results from above:
NPYLR7 ag max-min result of `CC(C)Cc1ncc2c(n1)CN(C(=O)CC1C=CS(=O)(=O)C1)C2` (stereo not drawn) : -7
NPYLR7 ag result of `CCc1nc(NCCN2CCCC2)c2ccc(Cl)cc2n1` : 20
NPYLR7 ag result of `CCN(C(=O)Nc1ccccc1F)C(C)c1nc2ccccc2c(=O)n1-c1cccc(Cl)c1` (stereo not drawn) : 8
NPYLR7 ag max-min result of `Nc1ncc(Cc2ccc(F)c(Cl)c2)s1` : 5
NPYLR7 ag max-min result of `CCc1nc(N(CCC(=O)N2CCCC2)Cc2ccccc2)c2ccccc2n1` : 9
NPYLR7 ag result of `COc1cc(OC)c(OC)cc1C=Nn1c(-c2ccc(C)cc2)n[nH]c1=S` : -2
NPYLR7 ag result of `CCn1nccc1NC(=O)COc1ccc(Cl)cc1C` : -18

Continued:
SMILES | NPYLR7 ag | NPYLR7 ag max-min
Cc1nc(N2CCC(C(=O)NC(C)Cc3ccsc3)CC2)nc2cc(S(C)(=O)=O)ccc12 (stereo not drawn) | 11 | 11
NS(=O)(=O)c1cccc2c1c([N+](=O)[O-])cc1[nH]c(=O)c(=O)[nH]c12 | -12&7&6 | -16&4&-48
Cc1csc(COC(=O)C2CCCO2)n1 (stereo not drawn) | 19 | 15
CC(=O)Nc1ccc(S(=O)(=O)N2CCN(c3nccc(-c4ccc(Oc5ccccc5)cc4)n3)CC2)cc1Cl | -5 | 3
CCOc1ccc2c(c1)CN(C(=O)Nc1cccc(COC)c1)CC2 | 1 | -1
CCCCC(=O)Nc1c(-c2cc(OC)c(OC)c(OC)c2)c(=O)c2ccccc2n1C | 6 | 2
CCOC(=O)CCCC(=O)N1CCc2ccccc2C1c1ccccc1F (stereo not drawn) | -4 | -5
COC(=O)c1ccc(NC(=O)Cn2nc(SC)c(S(=O)(=O)c3ccccc3)c2N)cc1 | -15 | -16
COCCCN(CC(=O)N(CCc1c[nH]c2ccccc12)Cc1ccc(C(F)(F)F)cc1)C(=O)c1ccc(F)cc1 | 9 | 8
C=CCn1c(-c2cccc([N+](=O)[O-])c2)n[nH]c1=S | 1 | -1
CSc1ccc(CN2CCC2(C)C(=O)Nc2ccccc2F)cc1 (stereo not drawn) | 2 | 2
C=CC(C)(C)S(=O)(=O)Cc1ccccc1 | -6 | -10
COc1ccc2nc(C)cc(SCC(NC(C)=O)C(=O)O)c2c1 (stereo not drawn) | 2 | 11
COc1ccc(-c2nc(CN3CCNCC3)cs2)cc1 | -3 | -4
O=C(NCCc1nc(-c2ccccc2)cs1)c1ccc2nc(C3CC3)oc2c1 | 8 | -5
Cn1cccc1C1CCCN1S(=O)(=O)c1cccnc1Cl (stereo not drawn) | 5 | -3
CCc1ccc2nc(NC(=O)C3CSC4(C)CCC(=O)N34)sc2c1 (stereo not drawn) | 2 | 2
Cc1cccc2nc(CSc3nnc(NC4CC4)s3)cc(=O)n12 | 0 | 5
CC[N+](CC)(CC)CCOc1cccc(OCC[N+](CC)(CC)CC)c1OCC[N+](CC)(CC)CC | 25&-1&-4 | 23&-2&-17
COc1ccccc1/C=N\NC(=O)Cn1cnc([N+](=O)[O-])n1 | -7 | -13
CCOC(=O)C1(Cc2cccc(Cl)c2)CCCN(Cc2cc(C)[nH]n2)C1 (stereo not drawn) | 3 | 0
CC(=O)Nc1ccc(SCCCC(=O)Nc2nccs2)nn1 | 0 | 1
Cn1ccc(C(=O)N(CCN2CCCC2)Cc2ccc(Cl)c(Cl)c2)cc1=O | -1 | -2
C=CCOC(=O)c1nnn(-c2nonc2N)c1C | 24 | 18
CCOC(=O)c1cc(-c2ccc(N3CCN(C(=O)[C@@H]4C[C@H]4c4ccccc4)CC3)cc2)n(-c2ccc(F)cc2)n1 | 28 | 16
Next compounds follow:
SMILES | NPYLR7 ag | NPYLR7 ag max-min
CCN(C)Cc1ccc(-c2nc(C(F)(F)F)c(C)c(=O)[nH]2)cc1 | -3 | -5
CCOC(=O)c1c(C)[nH]c(C2=Nn3c(nnc3C3CC3)SC2C)c1C (stereo not drawn) | -3&7 | -3&10
C[n+]1ccccc1N1CC2(C)CC1CC(C)(C)C2 (stereo not drawn) | -5 | -7
CCc1ccc(-c2nnn(CC(=O)NC(=O)NCc3ccco3)n2)cc1 | -2 | -3
CCCC(=O)NC(c1ccc(OC)c(OC)c1)c1ccc2cccnc2c1O (stereo not drawn) | -4 | -9
CCCCCCc1ccc(C(=O)Nc2ccc(N3CCN(c4ccccc4OC)CC3)c(C(=O)NCCOC)c2)cc1 | -3 | 3
CSCCC(NC(=O)c1ccco1)C(=O)NC1CCC(c2ccccc2)CC1 (stereo not drawn) | 1 | 0
COc1ccc(-c2cc(C(F)(F)F)n3ncc(C(=O)N4CCN(C)CC4)c3n2)cc1 | -8 | -9
CCOC(=O)c1cccc(NC(=O)NC(C)(C)Cc2c[nH]c3ccccc23)c1 | -4 | -12
Cc1nccn1CCN(C)Cc1cn(C)nc1-c1ccc(C2CCCCC2)cc1 | 2 | 7
CCn1c(=O)c2c(nc3n2CCCN3c2ccc(OC)cc2OC)n(C)c1=O | 4 | 0
CCc1c(C)nn(-c2ccc(C(=O)NCCc3ccccc3)cc2)c1C | -9 | -12
COC[C@H]1CCCN1C(=O)CC[C@H]1CNC(=O)[C@@H]2[C@@H](CCN2C(C)C)N1C | -9 | -12
Cc1cccc(OCC(O)CSc2ncc3ccccn23)c1 (stereo not drawn) | 5 | 4
CCOc1ncccc1CN1CCCC(C(=O)NCCSCc2ccccc2)C1 (stereo not drawn) | 0 | -6
COc1ccccc1CC1CCCN1CC(=O)N1CCN(S(C)(=O)=O)CC1 (stereo not drawn) | -1 | -3
Cc1ccc(C2(C)NC(=O)N(CC(=O)NC(C)c3cccs3)C2=O)cc1 (stereo not drawn) | -3 | -4
O=C(C=Cc1cc(Cl)c2c(c1)OCO2)N1CCN(C(=O)C2CCCO2)CC1 (stereo not drawn) | -4 | -2
CC(c1nc2ccccc2c(=O)n1-c1ccc(Cl)cc1)N(CCN(C)C)C(=O)Nc1cccc(Br)c1 (stereo not drawn) | 7 | 19
Cn1c(O)c(C=NC23CC4CC(CC(C4)C2)C3)c(=O)n(C)c1=O | -2 | -3
COCCNC(=O)c1cc2sc(C)cc2n1Cc1ccccc1C | 5 | 4
COc1cccc(C(CN2CCN(C(=O)c3cccs3)CC2)OCc2ccc(C#N)cc2)c1 (stereo not drawn) | -5 | -14
CCN(CC)S(=O)(=O)c1ccc(O)c(NC(=O)c2ccc(C)s2)c1 | 12 | 15
CC1(C)CC(=O)N(C2CCCCC2)C1(C)O (stereo not drawn) | -1 | -5
CCCN1CCN(C(C)C(=O)Nc2ccc(C)c(F)c2)CC1 (stereo not drawn) | 5 | 1
CC(C)(C)c1ccnc2nc(N3CCN(S(=O)(=O)c4cccc([N+](=O)[O-])c4)CC3)nn12 | 1 | -1
Cc1ccnc(NC(=O)c2cccc(CS(C)=O)c2)c1 (stereo not drawn) | 1 | -1
O=C(c1ccc(Cl)cc1Cl)N1CCc2sccc2C1c1ccc(F)cc1 (stereo not drawn) | 7 | 3
Cc1c(Cl)cccc1N1CCN(C(=O)c2cccc(F)c2)C(C)C1=O (stereo not drawn) | -1 | 11
Cc1cccc(-c2nc3scc(CCNS(=O)(=O)c4c(C)cc(C)cc4C)n3n2)c1 | -12 | -11

Among those listed so far, these contain a COOH group.
SMILES | NPYLR7 ag | NPYLR7 ag max-min
O=C(O)CCCCCNC(=O)c1ccc2c(c1)CCCC2 | 5 | 6
Cc1c(C(=O)O)oc2c1C(O)CC(C)(C)C2 (stereo not drawn) | -3 | 4
COc1ccc2nc(C)cc(SCC(NC(C)=O)C(=O)O)c2c1 (stereo not drawn) | 2 | 11

5 compounds out of the list, arranged by number of heavy atoms, high to low:
SMILES | NPYLR7 ag | NPYLR7 ag max-min
COc1cccc(C(CN2CCN(C(=O)c3cccs3)CC2)OCc2ccc(C#N)cc2)c1 (stereo not drawn) | -5 | -14
CCOc1ncccc1CN1CCCC(C(=O)NCCSCc2ccccc2)C1 (stereo not drawn) | 0 | -6
CCCC(=O)NC(c1ccc(OC)c(OC)c1)c1ccc2cccnc2c1O (stereo not drawn) | -4 | -9
Cc1cccc(OCC(O)CSc2ncc3ccccn23)c1 (stereo not drawn) | 5 | 4
CC1(C)CC(=O)N(C2CCCCC2)C1(C)O (stereo not drawn) | -1 | -5

Source: PubChem
